PABP FP inh = blocks human PABP binding to poly(A) RNA; actives 1% (n = 290,000); fluorescence polarization; inhibition, % at 35 µM; P11940;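 active = 50% or more with normal probe brightness, or confirmed in later tests; inconclusive = above 50% with abnormal brightness, or retests that disagree; inactive = below 50% or failed in later tests; about a fifth of its hits are not listed in these tables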;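 note: calls also rest on retests at 20 µM and on dose response follow-up; controls were probe without protein and protein plus probe with vehicle; some compounds called inactive have numbers as strong as hits; many hits fall short of the cut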
Target sequence (P11940 whole entry, looked up): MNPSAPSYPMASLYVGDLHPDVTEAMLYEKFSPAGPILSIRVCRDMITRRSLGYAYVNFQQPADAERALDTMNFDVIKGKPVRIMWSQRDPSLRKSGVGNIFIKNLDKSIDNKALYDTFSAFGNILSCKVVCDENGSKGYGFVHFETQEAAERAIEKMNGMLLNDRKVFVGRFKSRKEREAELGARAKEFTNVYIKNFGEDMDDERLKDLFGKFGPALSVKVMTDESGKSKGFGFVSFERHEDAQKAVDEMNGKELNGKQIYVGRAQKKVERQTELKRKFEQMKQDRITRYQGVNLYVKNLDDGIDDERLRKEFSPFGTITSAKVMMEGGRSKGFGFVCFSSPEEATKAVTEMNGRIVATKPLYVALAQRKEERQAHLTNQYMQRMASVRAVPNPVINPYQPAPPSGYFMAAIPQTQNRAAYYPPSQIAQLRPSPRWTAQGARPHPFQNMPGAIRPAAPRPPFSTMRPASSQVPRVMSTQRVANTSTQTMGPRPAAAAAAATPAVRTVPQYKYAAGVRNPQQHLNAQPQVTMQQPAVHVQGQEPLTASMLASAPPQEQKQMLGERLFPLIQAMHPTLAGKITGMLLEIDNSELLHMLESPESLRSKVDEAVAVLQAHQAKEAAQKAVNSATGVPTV
Rce1 inh = blocks yeast Ras-converting enzyme | Q03530 | yeast membranes, quenched prenylated peptide cleavage fluorescence | calls only | actives 0.27% (n = 290,000) | AID 2563;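 active = fall in fluorescence gain of 50% or more versus controls, with final raw signal at or below 3038400; inconclusive = same 50% fall but final raw signal above 3038400; inactive = fall in fluorescence gain under 50%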;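 note: plate controls were neutral control wells for no effect and wells lacking membranes for full effect; tested at 10 µM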
MT1-MMP act inh = blocks activation of human MT1-MMP. HT1080 RFP-PRO-GFP cells, GFP/RFP ratio fluorescence, overnight; percent of plate control window, DMSO zero. GFP/RFP ratio change, % at 20 µM. actives 0.061% (n = 360,000). P50281. AID 651647;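 active = GFP/RFP ratio change of at least 30% with cell ATP level not reduced by more than half and red fluorescence within 50% of control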; note: strong numbers were not always called active
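system = RFP-PRO-GFP reporter HT1080 cells | dosing = 20 µM single dose, 1% DMSO | timing = overnight cell settling, then overnight compound exposure, 37 °C, 5% CO2 | read-out basis = GFP/RFP fluorescence ratio | controls = DMSO and RFP-L50D-GFP cell wells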
eIF4H inh = inhibitors of RNA binding by human eIF4H | inhibition, % at 35 µM | actives 0.94% (n = 290,000) | eIF4H fluorescence polarization binding assay | AID 2012;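 active = 50% or more with normal probe brightness, or confirmed in later tests; inconclusive = above 50% with abnormal brightness, or retests that disagree; inactive = below 50% or failed in later tests; about a fifth of its hits are not listed in these tables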;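 note: calls also rest on retests at 20 µM and on dose response follow-up; 0% = protein and probe with vehicle and 100% = probe without protein; strong numbers were not always called active; many hits fall short of the cut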
CSC inhib = blocks cancer stem cells | cancer stem cell-like cells viability, luminescence | inhibition, % at 7.5 µM | actives 1.1% (n = 300,000) | AID 2717;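 active = mean at 75% or more and at least half the replicates too; inconclusive = mean and replicates disagree; tested in HMLE shEcad cells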;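 note: 0% = median of negative and 100% = median of positive control wells; the first replicate is given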
HIV Env fusion = HIV envelope-mediated fusion inhibition; HeLa-JRFL Env/CEM21 cell fusion, luciferase; inhibition, % at 12.3 µM; actives 1.1% (n = 360,000); AID 651610;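 active = mean replicate inhibition score of at least 50 and every replicate individually at or above 50; inconclusive = only one of the two criteria met; inactive = mean below 50 and not all replicates reaching 50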;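 note: 0% = plate neutral controls and 100% = maraviroc near 300 nM; one replicate is shown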
Yeast UUG start = yeast start codon fidelity modulation. S. cerevisiae UUG-firefly luciferase reporter, luminescence/redox ratio. AID 602363. actives 0.13% (n = 350,000). activity score, % at 18.7 µM;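 active = replicate mean at a twofold rise or more, about +100% in these data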;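 note: firefly luciferase made from a UUG start codon reports start codon fidelity; reporter light over untreated wells divided by growth signal over untreated wells; some hits fall short of that in this replicate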
eIF4H inh retest = second read-out of eIF4H inh, no call of its own (marks repeat the call); inhibition, %; compound at 20 µM; confirmation average;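 mean of two retest wells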
PABP FP inh retest = second read-out of PABP FP inh, no call of its own (marks repeat the call); inhibition, %; compound at 20 µM; confirmation repeats;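 mean of two retest wells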
MT1-MMP act inh RFP = recorded beside MT1-MMP act inh, whose call it bears; RFP signal change, %; measured here: RFP expression control read;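 0 = vehicle wells; hits needed this value within 50% of zero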
* hit, by the source's call; i = inactive; ? = inconclusive; nt = no result given.

SMILES	PABP FP inh	Rce1 inh	MT1-MMP act inh	MT1-MMP act inh RFP	eIF4H inh	CSC inhib	HIV Env fusion	Yeast UUG start	others
c1ccc(CN2CCC(Nc3nc(-c4ccccc4)nc4ccccc34)CC2)cc1	14	i	-3	-10	-3	139*	nt	nt
CCc1cccc2c(C(=O)COC(=O)c3nccnc3N)c[nH]c12	nt	i	-6	2	nt	-3	-25	-17
Cc1c(CC(=O)Nc2ccc(Cl)cc2)sc2ccc(Cl)cc12	-9	i	0	2	-4	1	7	-19
Clc1ccc(OCc2nc(-c3ccc(Br)o3)no2)cc1	7	i	3	6	-2	9	-23	-35
CC1(C)CC(=O)C/C(=N/NC(=O)CCCOc2ccc(Cl)cc2Cl)C1	-8	i	-6	-6	4	7	-8	-12
COc1ccccc1/C=C/C(=O)OCC(=O)N1CCN(S(=O)(=O)c2ccc(C)cc2C)CC1	nt	nt	2	0	nt	nt	11	-11
CCCOc1ccc(C2CC(=O)NC2=O)cc1 (stereo not drawn)	-2	i	-1	-1	-7	-11	26	-14
CCNC(=O)NC(=O)CSc1ccc(S(=O)(=O)N(C)C2CCCCC2)cn1	nt	nt	1	0	nt	-15	12	-11
Cc1nc(-c2ccccc2)sc1C1(C)CC(c2cccc([N+](=O)[O-])c2)=NO1 (stereo not drawn)	-2	i	3	0	2	8	21	-10
Cc1ccc2ccccc2c1C(O)c1ncc(-c2ccc(C(F)(F)F)cc2)[nH]1 (stereo not drawn)	nt	nt	6	-1	nt	nt	2	-24
CC(C)C[C@H]1CNC(=S)N1C[C@H]1CCCN1C[C@H](CC(C)C)N1C[C@H](Cc2ccc(O)cc2)N(CCc2ccccc2)C1=S	nt	nt	-6	-11	nt	nt	5	-23
O=C(COC(=O)c1cc2ccccc2oc1=O)Nc1cccc(Br)c1	nt	nt	11	1	nt	0	5	6
O=C(CNC(=O)c1ccccc1Br)N/N=C/c1ccco1	4	i	3	2	-4	-14	-7	308*
O=C(c1ccc(Oc2cc(Cl)cc(Cl)c2)o1)N1CCCCC1	-13	i	-3	-2	-7	12	12	-8
O=C(COC(=O)c1ccccn1)NCc1ccccc1	-8	i	3	4	5	8	nt	nt
CC(C)Cn1nc(C(=O)Nc2cccc(C(=O)NC3CC3)c2)c2ccccc2c1=O	nt	nt	4	2	nt	-2	nt	-19
CC(C)c1cc(C(=O)N/N=C/C(Br)=C/c2ccccc2)n[nH]1	5	i	-7	-15	-8	68	8	-7
Nc1nc2n(c1C(=O)c1ccccc1)CCC2	-8	i	-5	-2	-11	-3	22	-26
COc1ccc(OC)c(-c2csc(NC(=O)CSCC(=O)Nc3cc(C)on3)n2)c1	nt	nt	0	-1	nt	-5	nt	-5
Cc1cc(NC(=O)c2cc3ncc(Br)cn3n2)no1	7	i	-3	1	-1	-6	nt	-19
CC(=O)Nc1ccc(NC(=O)/C=C/c2ccc3c(c2)OCO3)cc1	-11	i	-1	2	-5	48	8	nt
O=C(CNC(=O)c1ccccc1F)OC(C(=O)Nc1cc(C(F)(F)F)ccc1Cl)c1ccccc1 (stereo not drawn)	-4	i	2	0	-2	4	-74	-20
COc1ccccc1NC1=NCC(=O)N1Cc1ccccc1	-3	i	0	2	-3	11	-118	-6
COc1ccc(Br)c(C(=O)NC2CCCC2)c1	-3	i	0	3	-6	65	9	nt
Cc1cnc(C(=O)N2CCN(S(=O)(=O)c3ccc4ccccc4c3)CC2)cn1	-4	i	5	-5	4	-12	3	-6
CCCCC(=O)N(C)c1c(CC)nc2c(OCC(=O)N3CCOCC3)cccn12	nt	nt	8	7	nt	nt	-6	-4
Cc1ccc(C(=O)COC(=O)c2ccccc2N2C(=O)C3C4CCC(C4)C3C2=O)cc1C (stereo not drawn)	-8	i	6	-3	-5	-6	21	-3
O=C1CN(C(=O)COC(=O)COc2ccc3c(c2)CCC3)c2ccccc2N1	1	i	4	1	-5	1	-40	-14
COCC(=O)N[C@@H]1c2cc(OC)c(OC)cc2C[C@H]1OCc1ccccc1	nt	nt	4	4	nt	nt	14	0
CCOC(=O)c1cc(-c2ccccc2)sc1NC(=O)CC(C)C	2	i	-8	-8	-6	37	-12	1
O=C1CC(c2ccccc2)CC(O)=C1C=Nc1ccccc1 (stereo not drawn)	2	i	2	1	5	-14	-11	nt
COc1cccc(-n2c(C)nn(C)c2=O)c1	-10	i	-1	1	-11	nt	nt	-20
CCOc1ccccc1CN1CCC(Oc2cccc(C(=O)NCCOC)c2)CC1	-5	i	0	0	-4	-1	8	2
CCCOc1ccc(C(=O)Nc2ccc(N3CCOCC3)cc2N2CCOCC2)cc1OCC	nt	nt	-3	1	nt	nt	-11	0
Cc1ccc(CNC(=O)c2ccc(N3CCCC3=O)cc2)cc1	3	i	1	-2	3	-4	-77	-16
CC1CCCCC1NC(=O)C1CCCN(S(=O)(=O)c2ccc(-n3cnnn3)cc2)C1 (stereo not drawn)	2	i	0	-3	-21	-2	2	-5
Cc1ccc(-c2csc(C(C)(O)c3ccc(F)c(F)c3)n2)cc1C (stereo not drawn)	nt	nt	1	-1	nt	nt	-65	-13
COc1cc2cc(CN(Cc3nnnn3Cc3ccccc3)CC3CCCO3)c(=O)[nH]c2cc1OC (stereo not drawn)	68*	i	1	9	54*	nt	nt	-7
CCc1c(C)nc(N2CCN(c3ccccc3)CC2)[nH]c1=O	8	i	4	2	6	20	-15	4
CCCC(c1nnnn1Cc1cccs1)N1CCN(c2ccc(OC)cc2)CC1 (stereo not drawn)	-17	i	0	-5	-2	-29	-34	-1
CCOC(=O)Cc1csc(NC(=O)Nc2ccc(Cl)cc2)n1	-7	i	-3	-25	-3	nt	2	nt
Cc1cc(C(=O)N/N=C/c2ccc(-c3cccc(Br)c3)o2)n[nH]1	-16	i	-1	-4	-24	-5	-3	-8
COCCNc1nc(-c2ccc(OC)cc2)c(-c2ccc(OC)cc2)s1	-1	i	-1	-2	7	9	6	nt
CC(=O)c1ccccc1C(=O)N1CCCC(N2CCN(Cc3ccc4c(c3)OCO4)CC2)C1 (stereo not drawn)	-3	i	-3	-2	-4	1	-9	-1
O=C(NNc1cccc(Cl)n1)Nc1cccc(Cl)c1	11	i	-2	0	12	13	-6	-5
Cc1ccc(NC(=O)Nc2ccno2)cc1	-9	i	4	-3	2	2	-2	-16
COc1ccc(-c2cc(C(F)(F)F)n3ncc(C(=O)NCC4CCCO4)c3n2)cc1 (stereo not drawn)	-3	nt	-1	-1	-10	nt	nt	-11
O=[N+]([O-])c1ccc(O)c(/C=N/Nc2ccccc2[N+](=O)[O-])c1	-12	i	5	-40	-1	46	9	-4
CCCCN1CC[C@H]2C=CC[C@@H](C(=O)Nc3ccc(Cl)cc3Cl)[C@H]2C1=O	nt	i	-3	-5	nt	-11	-18	-12
O=S(=O)(c1ccccc1)c1cnc(-c2cccnc2)nc1-c1ccc(Cl)c(Cl)c1	4	i	-2	-1	-12	4	2	-7
COc1ccc(C/C(C)=N/NC(=S)Nc2ccccc2F)cc1	-4	i	3	-3	-3	-6	-49	nt
CN(Cc1ccccc1Br)C(=O)CN1C(=O)NC2(CCCCCC2)C1=O	nt	nt	3	3	nt	-14	nt	0
CCNC(=O)c1c(O)c2c([nH]c1=O)CCCC2	-5	i	2	-1	2	-7	-4	-14
CC1CN(Cc2nc3c(c(=O)[nH]c(=O)n3C)n2CC(N)=O)CC(C)O1 (stereo not drawn)	-1	i	0	-1	-4	-7	-11	-16
CN(C=[N+](C)C)c1cccc2c1C(=O)c1ccccc1C2=O	23	i	1	12	?	15	8	nt
CCC(C(=O)NC(C)(C)C)N(C(=O)Cn1nnc(-c2cccs2)n1)c1cnc2ccccc2c1 (stereo not drawn)	-3	i	-5	-8	6	-11	-96	-4
CC(=O)NNC(=O)c1sc(=S)n2c1[nH]c(=O)c1sccc12	18*	i	-14	4	54*	-7	5	nt	eIF4H inh retest=87*;PABP FP inh retest=55*
O=C1c2ccccc2NC(c2ccccc2F)N1NS(=O)(=O)c1ccccc1 (stereo not drawn)	4	i	0	0	-5	-1	17	-7
CC(=O)Oc1ccc(/C=N/NS(=O)(=O)c2ccc(C)cc2)c(OC(C)=O)c1	-6	i	3	5	-11	5	22	4
O=C(C(=O)N1CCCc2ccccc21)c1cn(CC(=O)N2CCOCC2)c2ccccc12	10	i	-6	-2	-5	-8	-13	-2
The listing continues:
SMILES	PABP FP inh	Rce1 inh	MT1-MMP act inh	MT1-MMP act inh RFP	eIF4H inh	CSC inhib	HIV Env fusion	Yeast UUG start	others
Cc1nn(-c2ccccc2)c(Cl)c1C(=O)N1CCN(c2ncnc3c2cnn3-c2ccccc2)CC1	-2	i	-39	-32	-7	55	nt	-15
O=C(NCCN1CCOCC1)C(=O)NCC1OCCCN1S(=O)(=O)c1ccc(F)cc1 (stereo not drawn)	16	i	-4	3	2	5	6	-10
COc1cc(C(=O)OCC(=O)Nc2cccc(S(=O)(=O)N3CCCC3)c2)ccc1OCC(C)C	nt	i	0	-5	nt	-6	3	nt
O=C(NCc1ccccn1)c1ccc(NS(=O)(=O)c2cccc(Cl)c2)cc1	-1	i	2	0	3	-3	2	-7
Cc1ccccc1NC(=O)COC(=O)c1ccccc1SCC(=O)N1CCCC1	-5	nt	0	7	-8	-2	-31	-22
O=C(NC(=S)Nc1ccccc1Br)C1CCCCC1	nt	nt	2	2	nt	6	-12	nt
COc1ccc(NC(=O)CC(=O)Nc2ccc(OC)cc2)cc1	nt	i	-5	-2	nt	-12	12	nt
COc1ccc(CNn2c(-c3cccc(C)c3)nc3ccccc3c2=O)cc1OC	2	i	-5	-4	0	5	nt	5
CCC(=O)OCC(=O)Nc1ccc2c(c1)OCO2	-4	i	0	1	6	-8	-1	-13
O=C(c1cnn2cccnc12)N1CCN(c2ccccc2)CC1	6	i	3	0	7	nt	nt	-22
CCOC(=O)c1c(C)oc(NC(=O)CCl)c1C(=O)OCC	7	i	-2	4	-13	-14	5	nt
O=C(Cn1nc(Cl)nc1Cl)c1cc2ccccc2oc1=O	5	i	-5	-7	-5	-2	3	-15
CC(C)(C)c1ccc(C(=O)N2CCCC2c2cccs2)cc1 (stereo not drawn)	-6	i	-4	-4	0	4	8	-7
CCC(CC(C)(C)O)C(=O)NNC(=S)Nc1ccccc1 (stereo not drawn)	-5	i	2	3	42	-6	-1	nt
CC1C(=O)N2CCCc3cc(NC(=O)c4ccccc4Br)cc1c32 (stereo not drawn)	nt	i	6	4	nt	1	-37	-16
CC(/C=N/NC(=O)c1c(Br)cnn1C)=C\c1ccccc1	2	i	-3	0	-9	11	-14	nt
COc1ccc2[nH]c(C(=O)O)c(NS(=O)(=O)c3ccc(C)c(C)c3)c2c1	18	i	0	4	0	-1	-1	-13
O=C(CCc1nnc2ccc(NCCCN3CCCC3=O)nn12)NCc1ccccc1Cl	2	i	5	3	-4	-6	-1	85
COc1ccc(-c2cc(=O)[nH]c3ccccc23)cc1	nt	nt	-5	1	nt	nt	25	-11

Structural class: the compounds so far containing an aryl thioether with sulfur outside any ring.
SMILES	PABP FP inh	Rce1 inh	MT1-MMP act inh	MT1-MMP act inh RFP	eIF4H inh	CSC inhib	HIV Env fusion	Yeast UUG start	others
CCNC(=O)NC(=O)CSc1ccc(S(=O)(=O)N(C)C2CCCCC2)cn1	nt	nt	1	0	nt	-15	12	-11
Cc1ccccc1NC(=O)COC(=O)c1ccccc1SCC(=O)N1CCCC1	-5	nt	0	7	-8	-2	-31	-22

Screens: PubChem, several laboratories

Some of the compounds tested; the hit share may differ from the screen's.
